Compound activity as filed in PubChem BioAssay.
TSHR agonist: agonists of human thyroid stimulating hormone receptor; P16473; HEK293-CNG-TSHR cells (CNG channel as cAMP sensor), membrane potential dye, cAMP; Potency, µM (top dose mostly 57.1 µM), without a hit: at the top dose activation, usual class: activators; actives 0.48% (n = 73,000); AID 926; active = well fitted activation curve of enough size with the parental cells flat; inconclusive = any curve in the parental cells; inactive = parental cells flat and receptor cells flat or falling; note: potency is the fitted concentration of half-maximal effect; % of control where 0% means no effect; weak receptor curves with flat parental cells got no call and are not listed
Target sequence (P16473 whole entry, looked up): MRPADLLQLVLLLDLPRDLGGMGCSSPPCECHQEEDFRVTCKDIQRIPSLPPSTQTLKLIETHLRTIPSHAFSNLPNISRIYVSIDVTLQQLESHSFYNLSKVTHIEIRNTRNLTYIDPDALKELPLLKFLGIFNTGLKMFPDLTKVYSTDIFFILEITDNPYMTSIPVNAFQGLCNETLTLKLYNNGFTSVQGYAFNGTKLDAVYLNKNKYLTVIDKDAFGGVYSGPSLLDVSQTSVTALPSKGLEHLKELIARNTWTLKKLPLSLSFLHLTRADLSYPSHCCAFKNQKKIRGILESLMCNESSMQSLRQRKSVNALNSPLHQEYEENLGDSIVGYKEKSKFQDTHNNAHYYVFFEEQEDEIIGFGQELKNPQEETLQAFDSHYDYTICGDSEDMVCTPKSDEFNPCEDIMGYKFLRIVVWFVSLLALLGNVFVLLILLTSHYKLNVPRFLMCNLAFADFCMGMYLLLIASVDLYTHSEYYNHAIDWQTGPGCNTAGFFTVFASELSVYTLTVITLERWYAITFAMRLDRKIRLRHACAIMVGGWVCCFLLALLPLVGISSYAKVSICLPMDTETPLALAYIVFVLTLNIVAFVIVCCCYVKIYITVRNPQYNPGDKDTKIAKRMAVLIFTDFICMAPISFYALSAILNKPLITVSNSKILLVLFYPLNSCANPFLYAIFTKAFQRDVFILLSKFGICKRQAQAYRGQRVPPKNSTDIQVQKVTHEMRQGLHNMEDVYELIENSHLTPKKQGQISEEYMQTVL
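HEK 293 cells stably expressing TSHR and a modified CNG channel, with CNG-only parental cells as counterscreen, were preloaded 60 min at room temperature with membrane potential dye containing 100 uM RO 20-1724. Compound exposure was 30 min, and depolarization was read as fluorescence at 590 nm.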
AID923: qHTS Assay for Allosteric/Competitive Inhibitors of Caspase-1: Spectroscopic Profiling in AFC Spectral Region. compound fluorescence, AFC spectral region (405/520 nm); almost no hit is shown here. Potency, µM (highest dose often 57.5 µM), for inactives: at the top dose fluorescence increase, usual class: activators. actives 1.1% (n = 75,000). AID 923, 2007; active = well fitted activation curve with a large enough effect; inconclusive = small, poorly fitted or top-dose-only effect;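 note: potency is the fitted concentration of half-maximal effect; 0% is about no effect; scaled to a free AFC standard on each plate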
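Compound autofluorescence profiled at 405 nm ex/520 nm em during kinetic caspase 1 run (50 nM enzyme, 5 uM Ac-WEHD-AFC, HEPES pH 7.5, 10 mM DTT). Titration up to 57 uM; baseline from regression intercept, normalized to AFC standard curve.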
A647 fluor: A647 region autofluorescence; Compound fluorescence, A647 channel (570/671 nm), Tris buffer; max dye-equivalent concentration, M; 59,000 tested, under 10 active; AID 592; active means above 1 µM dye equivalent; inconclusive means 0.1 to 1 µM; inactive means 0.1 µM or less;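 note: values scaled relative to a standard on each plate; highest value over a series up to 38 µM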
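Fluorescence read (570 nm ex, 671 nm em) after 15 min RT incubation of compounds in 100 mM Tris buffer, pH 8.0; values expressed as dye-equivalent concentration against a six-point A647 standard series on each plate.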
A488 fluor: compound autofluorescence in A488 spectral region; max dye equivalency, M; compound autofluorescence, A488 spectral region, dye equivalency; hits give high values; actives 0.1% (n = 59,000); active = above 10 nM dye equivalent; inconclusive = 1 to 10 nM; inactive = 1 nM or less; about half of its hits are not listed in these tables;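 note: highest value over a series up to 38 µM; compound alone in buffer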
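Spectroscopic profiling in the A488 region: compounds in pH 8.0 Tris (100 mM), 15 min RT, CCD imaging with 480 nm excitation and 540 nm emission; responses normalized against A488 dye standards.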
Resorufin fluor: compound fluoresces in the resorufin spectral region; Compound fluorescence, resorufin region 547/598 nm, buffer; hits give high values; max dye-equivalent concentration, M; actives 0.04% (n = 59,000); AID 588; active = above 10 nM dye equivalent; inconclusive = 1 to 10 nM; inactive = 1 nM or less; a few of its hits are not listed in these tables; note: highest value over a series up to 38 µM
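Dye-equivalent concentration values derive from comparing each well's 547/598 nm fluorescence against resorufin standards included on every plate. Incubation was 15 min at room temperature in 100 mM Tris, pH 8.0.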
The depositor's hits bear a star; i = inactive; ? = inconclusive; . = no result given; & = joins results of further samples; [ ] = dose if it differs, or a comment.

SMILES	TSHR agonist	AID923	A647 fluor	A488 fluor	Resorufin fluor
COc1nc(NCCc2ccc(OC)c(OC)c2)nc(OC)n1	.	-0.5%	7.2e-09	i	i
N#C/C(=C(/O)CN1CCOCC1)c1nc(-c2ccccc2)cs1	5.4%	0.7%	1.59e-08	i	i
O=C(CN1C(=O)c2ccccc2S1(=O)=O)N1CCN(c2ccc(F)cc2)CC1	-4.3%	1.4%	1e-09	i	i
CCCCCCCCCCCC1=C(O)C(=O)C=C(O)C1=O	-0.1%&-0.3%	-3.2%	6.2e-09	i	i
CCOC(=O)COc1ccc2nsnc2c1	7.8%	8.1%	5.03e-08	i	i
COc1cc(-c2nnc(SCC(=O)c3cc(C)n(CC4CCCO4)c3C)o2)cc(OC)c1OC (stereo not drawn)	18.1%	-3.7%	8.7e-09	i	i
Cn1c(=O)oc2cc(S(=O)(=O)N3CCC4(CC3)OCCO4)ccc21	6.6%	1.7%	1e-09	i	i
COc1ccc(-c2csc(Cc3nnc4n3CCCCC4)n2)cc1	10.1%	-1.8%	4.53e-08	i	i
Cc1noc(C)c1C(=O)NCc1cccs1	1.1%	-1.3%	1e-09	i	i
Cc1cc(OCCCCCNCCO)cc(C)c1Cl	7.1%[11.4 µM]	0.6%	.	.	.
COc1ccc(C(=O)N2CCN(C(C)=O)CC2)cc1S(=O)(=O)NCc1ccc(Cl)cc1	2.8%	0.4%	2.64e-08	i	i
CCOC(=O)N1CCC(NC(=O)C2CCN(S(=O)(=O)N3CCCC3)CC2)CC1	4.3%	-0.3%	7.2e-09	i	i
CC(C)c1ccc(NC(=O)C2CCN(S(C)(=O)=O)CC2)cc1	-5.4%	-0.2%	1e-09	i	i
N#CC1(Nc2ccc(-c3ccc(NC4(C#N)CCCC4)cc3)cc2)CCCC1	0.3%[11.4 µM]	-1.6%[11.5 µM]	4.02e-08	i	i
CNc1ncnc2c1ncn2[C@@H]1O[C@@H](CO)[C@H](O)[C@@H]1O	8.9%	-0.3%	2.31e-08	i	i
Cc1cc(C)nc(SCCn2c(N3CCCCC3)nc3c2c(=O)n(C)c(=O)n3C)n1	1.7%	3.4%	3.71e-08	i	i
CCOC(=O)N1CCC(NC(=O)c2ccc(CS(=O)(=O)c3c(Cl)cccc3Cl)o2)CC1	-2.7%	1.6%	.	.	.
CCc1ccc2oc(=O)cc(CN(C)Cc3ccccc3)c2c1	?	0.5%	3.47e-08	i	i
O=C(NCCc1cn2ccccc2n1)C1CCCCC1	?	1.9%	.	.	.
COc1cc(OC)c(C(=O)COc2ncnc3ccccc23)c(OC)c1	2.9%	0.4%	1.33e-08	i	i
O=C(O)[C@H]1CN(C/C=C/P(=O)(O)O)CCN1	1.7%	-0.6%	.	.	.
CCN(CC)C(=O)CSc1nc(O)cc(=O)n1C	0.5%	-0.9%	6.4e-09	i	i
CC(C)(C)NC(=O)Cn1c(SCC(=O)NC2CCCCC2)nc2ccccc21	6.1%	0.8%	5.8e-09	i	i
COc1cc(NC(=O)C2CCN(S(=O)(=O)c3ccc(Cl)cc3)CC2)ccc1-n1cnnn1	17.3%	1.6%	1.76e-08	i	i
COC(=O)CCCC(=O)O	?	4.4%[11.5 µM]	1e-09	i	i

Further entries follow:
SMILES	TSHR agonist	AID923	A647 fluor	A488 fluor	Resorufin fluor
COC(=O)c1cc(S(=O)(=O)N2CCOCC2)ccc1Sc1ccccc1N	18.3%	-1.7%	1e-09	i	i
CCn1c(CNc2ccccc2Cl)nnc1SCC(=O)NCc1ccccc1	8.3%	-2.5%	2.8e-09	i	i
CCC(C)(C(=O)NC1CCCC1)N(C(=O)c1ccccn1)c1ccccc1 (stereo not drawn)	3.4%	0.3%	2.33e-08	i	i
CCn1c(=Nc2ccc(N3CCOCC3)cc2)ccc2ccccc21	-5.8%	-0.7%	4.1e-09	i	i
COc1ccc(-c2cc(N3CCCC3)n3ncnc3n2)cc1	10.0%	4.9%	4.04e-08	i	i
CS(=O)(=O)N1CCN(c2ccccc2NC(=O)c2cccs2)CC1	?	-2.6%	1e-09	i	i
CCOc1ccc(NC(=O)CSc2nnc(Cc3cccn3C)n2-c2ccc(F)cc2)cc1	1.3%	-2.0%	.	.	.
O=c1[nH]c(SCCOc2ccccc2)nc2ccccc12	18.9%	0.3%	1e-09	i	i
Cn1c(=O)c2c(nc(CN3CCOCC3)n2Cc2ccccc2)n(C)c1=O	2.0%	0.0%	1e-09	i	i
O=C(CSC1=NCCS1)Nc1nc(-c2ccccc2)cs1	?	-2.2%	.	.	.
CCOc1cc2[nH]c(=S)n(CC3CCCN3CC)c(=O)c2cc1OCC (stereo not drawn)	7.6%	0.5%	3.28e-08	i	i
NC(=O)Nc1n[nH]c(-c2ccccc2)n1	15.9%[11.4 µM]	10.7%[11.5 µM]	1.38e-08	i	i
CC(C)C(NS(=O)(=O)c1ccc2c(c1)oc(=O)n2C)C(=O)N1CCN(Cc2ccccc2)CC1 (stereo not drawn)	?	-2.6%	.	.	.
CN1CCN(C(=O)c2cc(-c3ccccc3)on2)CC1	3.5%	-1.2%	4.7e-08	i	i
CCCC(=O)c1c(C)c2ccccc2n1C	?	-3.6%	.	.	.
COc1ccc(S(=O)(=O)Nc2nc(C(F)(F)F)cs2)cc1	3.6%	0.0%	4.33e-08	i	i
COc1n[nH]c2nncnc12	-1.0%	-0.4%	3.64e-08	i	i
Cc1ccc(Nc2c3c(nc4ncnn24)CCC3)cc1	16.8%	1.1%	1.2e-09	i	i
C[C@H](N=C(NC#N)Nc1ccncc1)C(C)(C)C	6.8%	-2.7%	6.8e-09&3.45e-08	i	i
COc1ccccc1NC(=O)CSc1ncn[nH]1	?	20.3%	.	.	.
Cc1cccc(C2CC(c3ccc(Br)cc3)Nc3nc(N)nn32)c1 (stereo not drawn)	18.8%	-3.4%	.	.	.
CCCn1nc(C(=O)N2CC(=O)Nc3ccccc32)c2ccccc2c1=O	8.3%	0.2%	7.7e-09	i	i
COc1ccc(C(=O)n2nc(-c3ccc(Cl)cc3)nc2N)cc1OC	16.0%	0.9%	1.7e-09	i	i
Cn1c(=O)c2c(nc(CN3CCc4ccccc4C3)n2Cc2ccccc2)n(C)c1=O	.	4.2%	4.99e-08	i	i
CC(=O)N1CCC2(CCCN(C(=O)Nc3cccc(F)c3)C2)CC1	6.0%	0.6%	2.3e-09	i	i

The results go on.
SMILES	TSHR agonist	AID923	A647 fluor	A488 fluor	Resorufin fluor
Cc1nc(N[C@@H](Cc2c[nH]c3ccccc23)C(=O)O)c2oc3ccccc3c2n1	6.6%	-2.0%	8.9e-09	i	i
CCOC(=O)N1CCN(C(=O)c2c(O)c3cccc4c3n(c2=O)CC4)CC1	-2.6%	-0.4%	1.38e-08	i	i
Oc1ccc(-c2n[nH]c(=S)n2Cc2ccccc2)cc1	18.1%	-2.9%	.	.	.
Clc1ccc(SCCCCn2ccnc2)cc1	13.9%	0.5%	.	.	.
COc1cccc(C(=O)NCCn2ccc3ccccc32)c1	-1.7%	1.2%	.	.	.
COc1ccccc1N1CCN(C(CNS(=O)(=O)c2ccc(C)cc2)c2cccnc2)CC1 (stereo not drawn)	0.0%	0.4%	1e-09	i	i
O/N=C1\CC2(Cc3nonc31)OCCO2	-2.8%	1.4%	1.6e-08	i	i
COC(=O)c1[nH]c2ccc(Br)cc2c1NC(=O)CN1CCN(C2CCCCC2)CC1	?	1.6%	1.67e-08	i	i
CC(C)[C@@H]1NC(=O)[C@H](CCCCN)NC(=O)[C@H](Cc2c[nH]c3ccccc23)NC(=O)[C@H](Cc2ccc(O)cc2)NC(=O)[C@H](C)N(C)C(=O)[C@H](Cc2ccccc2)NC1=O	3.0%	-3.2%	6.1e-09	i	i
CCCC(=O)Nc1ccc(NC(=O)C23CC4CC(CC(C4)C2)C3)cn1	-4.3%	0.0%	1e-09	i	i
O=C(CC1SC(=O)N(c2ccccc2)C1=O)Nc1ccccc1 (stereo not drawn)	-21.1%	-0.6%	1.1e-09	i	i
CCOC(=O)c1sc2nc(SCC(=O)NCc3ccco3)n(Cc3ccccc3)c(=O)c2c1C	-14.7%	1.2%	2.32e-08	i	i
Cc1c(C(=O)NCc2cccnc2)oc2ccc(S(=O)(=O)N3CC(C)CC(C)C3)cc12 (stereo not drawn)	6.9%	-1.8%	.	.	.
COc1ccc(C(=O)N2CCC[C@@]3(CCN(C(=O)Nc4cccc(C#N)c4)C3)C2)cc1	-0.7%	0.4%	1e-09	i	i
Cc1ccc(C(=O)N2Cc3ccccc3CC2C(=O)O)cc1 (stereo not drawn)	-9.6%	-1.5%	1e-09	i	i
O=C1CC(C(=O)Nc2ccc(Br)cc2)C2(CCCC2)O1 (stereo not drawn)	-13.2%	-0.1%	3.04e-08	i	i
CN1/C(=C/C(=O)C2CCC2)Sc2ccccc21	-4.6%[11.4 µM]	-1.3%	3.27e-08	i	i
CC(=O)Cn1c(C(F)(F)F)nc2ccccc21	-4.2%	-0.6%	.	.	.
NC(=O)C1CCN(CCCNC2CC(=O)N(Cc3ccc(N4CCCC4=O)cc3)C2=O)CC1 (stereo not drawn)	0.1%	-2.7%	.	.	.
COC(=O)C1=C(C)NC(C)=C(C(=O)OC)C1C1CC=CCC1 (stereo not drawn)	20µM*	1.6%	.	.	.
CCCn1nnc(NC(=O)c2ccc(Cl)cc2Cl)n1	-2.2%	-0.5%	7.5e-09	i	i
O=C(CCc1ccc(S(=O)(=O)N2CCOCC2)cc1)OCc1nc2ccccc2s1	2.5%	4.1%	3.19e-08	i	i
Cc1cc(=O)[nH]c2cc(Cl)ccc12	2.4%[11.4 µM]	3.0%	1e-09	i	i
O=c1c(-c2cccc(Cl)c2)nc2cncnc2n1Cc1ccccc1	4.2%	4.6%	3.58e-08	i	i
CCOC(=O)C1CCCN(CCC(=O)Nc2ccc(F)c(F)c2)C1 (stereo not drawn)	1.0%	-0.7%	1.47e-08	i	i

(more compounds)
SMILES	TSHR agonist	AID923	A647 fluor	A488 fluor	Resorufin fluor
CCCc1c(O)nc(SC2CC(=O)N(c3cc(OC)ccc3OC)C2=O)[nH]c1=O (stereo not drawn)	?	0.0%	1.82e-08	i	i
Cc1ccc(CN(Cc2cccnc2)C(=O)CN2C(=O)COc3ccccc32)o1	?	-1.5%	1.59e-08	i	i
CCOC(=O)C1(CC)NC(c2cccc(F)c2)C2C(=O)N(CC)C(=O)C21 (stereo not drawn)	11.9%	2.0%	1.92e-08	i	i
COc1cc(C)c(CN2CCCCC2CO)cc1C (stereo not drawn)	10.3%[11.4 µM]	0.4%	.	.	.
COc1ccccc1OCCSc1ncnc2nc[nH]c12	-3.0%	0.1%	1e-09	i	i
O=C(NC1CCCCC1)N(Cc1cc2cc3c(cc2[nH]c1=O)OCCO3)CC1CCCO1 (stereo not drawn)	2.9%	1.6%	2.88e-08	i	i
COc1ccc(NC(=O)c2ccc(CN3CCN(c4ccccc4)CC3)cc2)cc1	-3.1%	2.4%	.	.	.
COc1cccc2cc(C(=O)N3CCN(c4ncccn4)CC3)c(=O)oc12	1.6%	-1.5%	2.68e-08	i	i
COc1cccc2c1C(=O)c1c(O)c3c(c(O)c1C2=O)C[C@](O)(C(=O)CO)C[C@@H]3O[C@H]1C[C@H](N)[C@@H](O)[C@H](C)O1	-1.2%[11.4 µM]	.	1e-09	i	i
COc1cccc(/C=N/n2c(SC)nnc2-c2ccccc2)c1O	20.1%	18.2%	.	.	.

Some of the entries so far, as labelled records.
CCCc1c(O)nc(SC2CC(=O)N(c3cc(OC)ccc3OC)C2=O)[nH]c1=O (stereo not drawn)
  TSHR agonist: ?; AID923: 0.0%; A647 fluor: 1.82e-08; A488 fluor: i; Resorufin fluor: i
Cc1ccc(CN(Cc2cccnc2)C(=O)CN2C(=O)COc3ccccc32)o1
  TSHR agonist: ?; AID923: -1.5%; A647 fluor: 1.59e-08; A488 fluor: i; Resorufin fluor: i
CCOC(=O)C1(CC)NC(c2cccc(F)c2)C2C(=O)N(CC)C(=O)C21 (stereo not drawn)
  TSHR agonist: 11.9%; AID923: 2.0%; A647 fluor: 1.92e-08; A488 fluor: i; Resorufin fluor: i

A portion of the library; count on the stated rates, not on these rows.
